# High-throughput results deposited in PubChem by National Center for Advancing Translational Sciences (NCATS).
# D2 agonist – agonists of human D2 dopamine receptor (beta-arrestin); DiscoveRx PathHunter D2 beta-arrestin, luminescence, 90 min; 100% = 57 uM dopamine signal; activation, % (concentration not given with the values); 360,000 tested, 0.084% active; AID 624465; in the data active = activation above about 40%; inconclusive = about 15% to 40%; inactive = below about 15%; further: compound concentration not given in the record; the text of the record calls up to 30% inactive
# Target sequence (P14416 whole entry, looked up): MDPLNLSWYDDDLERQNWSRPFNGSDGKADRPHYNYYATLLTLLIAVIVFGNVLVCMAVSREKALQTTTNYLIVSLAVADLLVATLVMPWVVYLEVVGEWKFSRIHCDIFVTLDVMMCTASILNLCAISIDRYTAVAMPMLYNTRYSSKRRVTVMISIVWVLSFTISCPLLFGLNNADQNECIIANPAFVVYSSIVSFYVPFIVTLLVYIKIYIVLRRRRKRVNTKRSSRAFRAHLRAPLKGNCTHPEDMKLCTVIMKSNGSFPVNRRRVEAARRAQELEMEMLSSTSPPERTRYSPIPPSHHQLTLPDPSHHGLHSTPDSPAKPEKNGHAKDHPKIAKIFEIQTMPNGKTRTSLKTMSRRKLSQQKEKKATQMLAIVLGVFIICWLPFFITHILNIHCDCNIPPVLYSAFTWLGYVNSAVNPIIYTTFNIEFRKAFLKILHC
#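 Agonist mode: compounds alone added to overnight-plated D2 PathHunter cells for 90 min at 37 C, with 57 uM final dopamine (EC100) defining full response. Beta-arrestin recruitment detected by chemiluminescent reagent, read after 1 h at ambient temperature.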
# Menin-MLL FL inh – menin-MLL binding inhibition, fluorescein peptide. Fluorescence polarization, fluorescein-MLL peptide displacement from menin. FP activity change, % at 61.4 µM. 290,000 tested, under 10 active; inconclusive = falling polarisation curve, or a change in total fluorescence; inactive = total fluorescence flat and polarisation flat or rising; no compound was filed as active; the % refers to the polarisation; negative = inhibition;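 further: % of control where 0% means no effect; inhibitors lower the polarisation; unlabelled MLL peptide was the positive control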
# PINK1 expr mod – changes PINK1 expression; PINK1 immunofluorescence, high-content cytometry, 24 h; Potency, µM (doses to about 76.6 µM), inactives show top-dose activation (PINK1 increase), most hits filed as activators; 410,000 tested, 0.2% active; active = well fitted activation curve with a large enough effect; inconclusive = small, poorly fitted or top-dose-only effect; inactive = flat fitted curve, though single readings scatter; cell line not stated here;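 further: potency means the concentration at half of the fitted maximal effect; % of control where 0% means no effect; nearly all actives have a fitted effect of over 65% in size; a mitochondrial uncoupler was the plate control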
#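 Measures PINK1 amount and localization on or inside mitochondria by immunofluorescence. Stable cells get compounds at 5 concentrations for 24 hours before fixation and staining; CCCP controls included.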
# gsp antagonist – gsp mutant antagonism. gsp-mutant cells, cAMP HTRF, 30 min; control for the full effect not named in the record. Potency, µM (titrated, usually from 76.9 µM), for the others: at the highest dose activity change, negative = inhibition, actives largely listed as inhibitors. 340,000 tested, 0.4% active. AID 624288; active = falling curve of any shape with a large fitted effect; inconclusive = falling curve, mostly with a smaller effect; inactive = flat or rising curve; cell line not stated here;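 further: intracellular cAMP measured with PDE inhibitor Ro 20-1724 present during compound exposure; potency means the concentration at half of the fitted maximal effect; on the % scale 0 is the no-effect control and ±100 the full control effect; nearly all actives have a fitted effect of over 65% in size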
#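 G418-selected cells were plated in DMEM/10% FBS for 16-24 h at 37C, then treated with compounds plus the PDE inhibitor […] (300 uM solution added) for 30 min at 37C. Intracellular cAMP was measured by HTRF after 30 min lysis at room temperature.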
# Sfp PPTase inh – inhibitors of Bacillus subtilis Sfp phosphopantetheinyl transferase; 310,000 tested, 3.5% active; AID 1490; Biochemical Sfp PPTase activity, qHTS; Q9F4F7; Potency, µM, for inactives: max response, negative = inhibition, usual class: inhibitors; active means well fitted inhibition curve with a large enough effect; inconclusive means small, poorly fitted or top-dose-only effect, or another doubt; inactive means no such curve, though single readings can be large or run the other way;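 further: the enzyme is Sfp with the accession as filed and its product quenches rhodamine fluorescence; potency means the concentration at half of the fitted maximal effect; 0% = enzyme reaction without inhibitor and -100% = no enzyme wells; top concentration of the series not given in the record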
#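 Fluorescence-quenching assay: 15 nM Sfp-PPTase preincubated 15 min at room temperature with compound, then 5 uM rhodamine-CoA and 12.5 uM BHQ-2-labelled YbbR peptide added. Fluorescence (ex 525/em 598 nm) read at start and after 30 min; difference gives rate.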
# gsp agonist – agonists of gsp mutant (McCune-Albright syndrome); 340,000 tested, 0.13% active; Potency, µM (doses to about 76.9 µM), without a hit: at the highest dose activation (cAMP increase), actives largely listed as activators; gsp mutant cells, cAMP HTRF, 30 min; control for the full effect not named in the record; active = well fitted activation curve with a large enough effect; inconclusive = small, poorly fitted or top-dose-only effect, or another doubt; inactive = no such curve, though single readings can be large or run the other way; cell line not stated here;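 further: phosphodiesterase inhibitor Ro 20-1724 added with compounds to block cAMP breakdown; potency means the concentration at half of the fitted maximal effect; nearly all actives have a fitted effect of over 60% in size; about a fifth of the inactives were tested at one dose only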
#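 Cells stably selected in G418 were plated at 2000/well, grown 16-24 hr, then given compounds in DMSO with the PDE inhibitor […] (300 uM solution added) for 30 min at 37C; cAMP was read by HTRF.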
# ClpP mod – qHTS Assay for Activators of ClpP; ATP-dependent Clp protease proteolytic subunit (Bacillus subtilis (strain 168)), P80244; Potency, µM (top dose mostly 57.5 µM), inactives show at the highest dose activity change, negative = active; AID 651965, 2013; 340,000 tested, 1.9% active; purified B. subtilis ClpP, FRET peptide cleavage, 20 min; active = well fitted falling curve with a large enough effect; inconclusive = small, poorly fitted or top-dose-only effect; inactive = no such curve, though single readings can be large or run the other way; further: potency means the concentration at half of the fitted maximal effect; the source files actives as falling curves though it sought activators and does not explain the sign; nearly all actives have a fitted effect of over 65% in size; many hits overshoot -100%
# Target sequence (P80244 whole entry, looked up): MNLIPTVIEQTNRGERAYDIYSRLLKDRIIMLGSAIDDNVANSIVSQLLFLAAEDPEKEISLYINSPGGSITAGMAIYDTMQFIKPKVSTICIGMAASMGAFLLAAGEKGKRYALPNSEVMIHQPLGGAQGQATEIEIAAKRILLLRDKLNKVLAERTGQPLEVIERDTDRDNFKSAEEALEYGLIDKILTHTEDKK
#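 FRET quenching reversal measured ClpP activation: 10 microg/mL B. subtilis ClpP at pH 8 with the FRET-FV decapeptide, read at 430 nm after 320 nm excitation. The 20-min minus 0-min signal was scaled between DMSO/no-enzyme wells and ADEP (5.8 microM final).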
# * hit, by the source's call; ? = inconclusive; / = no result given; & = joins results of further samples; [ ] = another dose, or the depositor's remark.
SMILES,D2 agonist,Menin-MLL FL inh,PINK1 expr mod,gsp antagonist,Sfp PPTase inh,gsp agonist,ClpP mod
CCC(C(=O)OC)n1cnc2c(nnn2-c2ccccc2)c1=O (centres undefined),-3.8,1.5,0.2%,-3.5%,16.0%,17.8%,-3.1%
CN1CCN(c2ccc(NC(=O)CN3CCOCC3)cc2F)CC1,0.6,-0.9,0.2%,12.9%,-6.0%,5.0%[15.4 µM],/
CCSc1nnc(Cn2c(=O)sc3ccccc32)n1-c1ccccc1C,-2.4,0.3,-0.1%,1.2%,-1.8%,-52.3%[inhibitor],-1.7%
CCCN(CCC)CCCNC(=O)c1cc2c(=O)[nH]c3ccccc3c2n1C,-3.7,0.8,-1.0%&-5.3%,11.1%,5.8%,-43.8%,4.6%&3.8%
O=c1c2cc(N3CCOCC3)ccc2[nH]c(=S)n1CCCN1CCCCCC1,1.7,-0.4,/,-11.1%,-11.0%,?,-8.6%
O=c1c(-c2cccs2)nc2cnc(Oc3cccc(Cl)c3)nc2n1C1CC1,/,5.3,1.3%,/,-14.6%,/,/
Cc1ccc(C(=O)OC(C)C(=O)NC2CCCCC2C)cc1S(=O)(=O)N1CCCCC1 (centres undefined),3.2,-2.9,2.1%,?,11.4%,-14.2%,-0.8%
CCC(=O)Nc1ccc2ccccc2c1,0.9,1.6,-0.5%,-11.3%,15.2%,15.9%,0.9%
NS(=O)(=O)c1ccc2nc(NC(=O)Nc3ccccc3F)sc2c1,-7.8,11.1,1.4%,-1.3%,5.2%,-20.3%[15.4 µM],/
COc1cccc(CC2(CO)CCCN(Cc3ccc(CO)o3)C2)c1 (centres undefined),-2.8,-1.8,4.1%,13.1%,13.7%,-2.5%,0.4%
COc1ccc(S(=O)(=O)N2CCOCC2)cc1NC(=O)CSc1nnc(C2CC2)n1C,-2.2,/,1.1%,-2.4%,/,1.8%,-1.8%
O=C(CC1OC(=O)c2ccccc21)Nc1ccccc1N1CCOCC1 (centres undefined),1.2,-7.4,1.4%,-1.8%,1.8%,8.4%,-1.1%
COc1ccc(/C=C/C(=O)NC(=S)Nc2cc([N+](=O)[O-])ccc2O)cc1OC,-3.6,4.2,1.3%,-47.1%,-6.2%,?,2.2%
CC(C)Oc1ccc(C(=O)NCCCNC(=O)c2ccccn2)cc1,-4.5,3.1,-2.5%,2.9%,7.6%,28.8%,/
Cc1ccccc1CN1C(=O)CSc2ccc(C(=O)N3CCOCC3)cc21,-3.9,2.2,-0.2%,4.7%,8.8%,14.0%,1.6%
CCOC(=O)c1c(C)[nH]c(C(=O)OCC(=O)NCCc2ccc(OCC)c(OCC)c2)c1C,-3.8,/,5.3%,2.4%,/,0.0%,2.1%
Cc1cc(NC(=O)COC(=O)CCNS(=O)(=O)c2ccccc2)n(-c2ccccc2)n1,-4.7,/,1.9%,0.5%,/,-3.2%,1.1%
CCCNc1nc2c(c(=O)n(C)c(=O)n2C)n1Cc1cccc(C)c1,4.3,-1.8,0.1%[38.3 µM],-20.2%,-7.6%,-43.1%[inhibitor],-1.0%
COC(=O)c1ccc(C2/C(=C(\O)c3cccc(OC)c3)C(=O)C(=O)N2CCCN(C)C)cc1 (centres undefined),0.1,4.4,2.1%,20.9%,11.2%,7.8%,-2.1%
CCCCN(C(=O)CN1CC(C)OC(C)C1)c1c(N)n(CC(C)C)c(=O)[nH]c1=O (centres undefined),-0.5,7.8,-2.9%,-3.3%,-0.7%,-8.4%,-1.8%
CCCCn1c(SCC2CCCO2)nc2cc(S(N)(=O)=O)ccc21 (centres undefined),-2.0,3.0,2.3%,-16.4%,-3.0%,-36.0%[inhibitor],1.0%
CC(CC(=O)Nc1ccncc1)c1ccccc1 (centres undefined),-0.3,-1.6,-2.4%,-1.5%,13.5%,0.4%,-2.8%
COc1ccc(CCNC(=O)CCN2C(=O)C3CC=CCC3C2=O)cc1OC (centres undefined),-2.7,-1.1,-1.6%,16.1%,12.9%,14.7%,-1.1%
C/C(=C1/SC(N2CCOCC2)=NC1=O)c1ccc(Br)cc1,1.1,-0.2,9.2%,-1.2%,9.4%,9.0%,-2.8%
CCCNC(=O)COC(=O)CCC(=O)c1cccs1,2.0,6.9,-0.9%,-2.7%,13.9%,-8.8%[15.4 µM],/
CCCCn1c(N)c(N(CCOC)C(=O)COC(=O)COc2c(C)cccc2C)c(=O)[nH]c1=O,-0.1,/,-2.7%,9.3%,/,1.5%[15.4 µM],/
Cc1ccc2nc(SCC(=O)N3c4ccccc4CC3C)c(C)cc2c1 (centres undefined),-4.0,-2.8,9.2%,-3.4%,?,?,-19.5%
O=C(NN1C(=O)CSC1=S)C(=O)NN1C(=O)CSC1=S,-5.2,13.3,-0.8%,-6.3%,?,-4.3%[15.4 µM],/
COc1ccc(OC)c(NC(=O)N[C@H](Cc2ccccc2)C(=O)NN)c1,2.5,0.4,0.2%,-15.3%,11.8%,13.5%[15.4 µM],?
CC(NC(=O)c1ccco1)C(=O)NC(C)c1cc(F)c(Cl)cc1Cl (centres undefined),-4.6,-4.5,-1.1%,3.3%,10.8%,-14.8%,1.6%
CC(C)N(Cc1nc(-c2ccccc2)no1)C(=O)C(C)(C)C,-1.7,0.8,-0.7%,-2.0%,9.3%,-30.8%[inhibitor],-1.1%
CC(C)(C)OC(=O)N1CCC(C(=O)Nc2cccc(C(=O)NCCCCc3ccccc3)c2)CC1,1.7,/,1.6%,-3.6%,/,/,-0.5%
NC(=O)CSc1nnc(-c2cnccn2)n1Cc1ccco1,-0.2,-0.3,-0.4%,4.8%,2.8%,-0.9%,/
COc1cc2c(c(OC)c1OC)C(c1ccccc1C)CC(=O)O2 (centres undefined),-3.3,-2.9[94.6 µM],1.6%,0.0%,?,/,-0.1%
COc1ccc(OC)c(S(=O)(=O)Nc2c(C)nn(C)c2C)c1,-2.8,/,2.2%,8.0%,/,-39.0%[inhibitor],-0.4%
Cc1c(S(=O)(=O)N2CCN(c3cccc(C(F)(F)F)c3)CC2)c(=O)n(C)c(=O)n1C,-4.6,-0.2,1.6%,10.6%,7.0%,17.6%,-1.0%
CCOc1ccc(CN(C)CC(=O)Nc2ccccc2C(=O)NC2CC2)cc1,-3.0,/,-1.6%,9.3%,/,-5.7%,1.8%
Cc1noc(C)c1-c1nc(NC2CCNCC2)c2ccccc2n1,/,-6.4,1.5%,/,-18.7%,/,/
COC(=O)c1ccc(COc2ccc(Cl)cc2)o1,-3.4,4.8,0.9%,-1.6%,1.1%,21.9%,-1.9%
CCC(Cc1ccccc1)NC(=O)C1CCC(CNc2c(N3CCCC3)c(=O)c2=O)CC1 (centres undefined),-6.5,-1.6,1.3%,4.8%,15.0%,?,-2.6%
O=C(c1cccs1)N1CCN=C1SCc1ccc(F)cc1,-5.0,0.0,0.3%,0.4%,-1.6%,-59.9%[inhibitor],-0.3%
Cc1nc2ccccc2cc1OCc1ccccc1,5.3,4.5,-1.7%,?,-18.0%,16.6%,-6.8%
COC(=O)c1sccc1NC(=O)Nc1cccc(Cl)c1Cl,-1.5,4.2,-0.8%,-6.4%,12.8%,3.0%,-7.8%
CCCN(CC(=O)Nc1ccc(F)c(F)c1F)C(=O)CN1C(=O)NC2(CCCCC2)C1=O,2.7,/,1.0%,3.2%,/,-31.2%[inhibitor],4.9%
O=C(NCc1ccc(Cl)cc1)c1cc(-c2cccs2)on1,3.5,5.1,2.7%[38.3 µM],4.2%,25.1µM*,-28.6%,1.4%
CC1=C(C(=O)Nc2ccccc2F)C(c2ccsc2)C2=C(CC(C)(C)CC2=O)N1 (centres undefined),4.3,4.5,9.4%,8.7%,3.5%,-13.8%,4.1%
C=CCOc1c(Cl)cc(/C=N/O)cc1OC,3.8,2.0,-6.4%[38.3 µM],0.3%,18.5%,5.6%,-0.6%
CC(N=C1NS(=O)(=O)c2ccccc21)C(=O)NCc1ccc2c(c1)OCO2 (centres undefined),-2.8,4.3,1.7%,3.4%,15.9%,-2.2%,-3.0%
Cc1cc(C)nc(N2CCCC(C(=O)Nc3cc(F)ccc3C)C2)n1 (centres undefined),-0.2,3.7,3.4%,19.3%,8.3%,-35.3%[inhibitor],-20.4%
CCCOc1ccc2c3c(c(=O)oc2c1)CCCC3,-1.9,-2.3,-1.0%,-12.1%,-11.2%,13.3%,-2.1%
CC(C)OP(=O)(c1ccc(N(C)C)cc1)C(O)c1cccnc1 (centres undefined),-6.2,-0.9,0.7%,2.2%,13.6%,?,-3.5%
Cc1nn(C(C)C(=O)NCc2ccc(Cl)cc2)c(=O)c2cc3occc3n12 (centres undefined),-3.4,/,0.0%,0.3%,10.9%,?,-4.2%
CCCCN1CC(N2CCN(C3CCN(C)CC3)CC2)CS1(=O)=O (centres undefined),8.0,/,-0.4%,/,/,/,2.2%
O=C(Cn1cnc2ccccc21)Nc1cccc(S(=O)(=O)N2CCCC2)c1,-0.8,/,0.6%,0.2%,/,-16.2%,-2.5%
Cc1ccc(-c2c(C#N)c(N)nc3c2CCCC3)s1,-1.2,1.2,-0.4%,-17.2%,-0.2%,5.3%,-20.6%
COc1cccc(NC(=O)c2ccccc2-c2ccccc2)c1,3.5,-3.1,2.1%,9.6%,2.4%,12.1%,/
CC1(C(=O)NNC(=O)c2cccc([N+](=O)[O-])c2)CC1Br (centres undefined),-0.7,/,1.7%,/,/,-22.2%,-1.3%
NS(=O)(=O)c1ccc(CCNC(=O)C2CCC(CNS(=O)(=O)c3ccc(Br)s3)CC2)cc1 (centres undefined),-0.1,-0.3,8.1%,11.7%,3.9%,9.9%[15.4 µM],/
CCCN1C(=O)C(NC(C)=O)c2ccccc21 (centres undefined),-1.3,3.9,-12.4%[38.3 µM],11.4%,1.5%,28.3%,-1.8%
